gsp antagonist – antagonizes gsp, the McCune-Albright syndrome mutation; Potency, µM (doses to about 76.9 µM), for the others: top-dose activity change, negative = inhibition, most hits filed as inhibitors; hit rate 0.4% among 340,000; gsp-mutant cells, cAMP HTRF, 30 min; control for the full effect not named in the record; active = falling curve of any shape with a large fitted effect; inconclusive = falling curve, mostly with a smaller effect; inactive = flat or rising curve; cell line not stated here;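 also: intracellular cAMP measured with PDE inhibitor Ro 20-1724 present during compound exposure; potency is read from the fitted curve at half-maximal effect; % is scaled to controls: 0 for no effect and ±100 for the full control effect; nearly all actives have a fitted effect of over 65% in size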
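G418-selected cells were plated in DMEM/10% FBS for 16-24 h at 37C, then treated with compounds plus the PDE inhibitor […] (300 uM solution added) for 30 min at 37C. Intracellular cAMP was measured by HTRF after 30 min lysis at room temperature.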
gsp ag – agonists of gsp mutant (McCune-Albright syndrome) | gsp mutant cells, cAMP HTRF, 30 min; control for the full effect not named in the record | Potency, µM (series often up to 76.9 µM), for the others: at the highest dose activation (cAMP increase), actives largely listed as activators | hit rate 0.13% among 340,000; active = well fitted activation curve with a large enough effect; inconclusive = small, poorly fitted or top-dose-only effect, or another doubt; inactive = no such curve, though single readings can be large or run the other way; cell line not stated here;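 also: phosphodiesterase inhibitor Ro 20-1724 added with compounds to block cAMP breakdown; potency is read from the fitted curve at half-maximal effect; nearly all actives have a fitted effect of over 60% in size; about a fifth of the inactives were tested at one dose only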
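Cells in DMEM/10% FBS with G418 were pretreated with compounds in DMSO plus […] (300 uM stock) for 30 min at 37C. cAMP was measured by HTRF (cAMP-d2 plus anti-cAMP antibody-K) after 30 min at room temperature.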
Sfp inh – blocks B. subtilis Sfp PPTase activity; Q9F4F7; Biochemical Sfp PPTase activity, qHTS; Potency, µM, for inactives: max response, negative = inhibition, most hits filed as inhibitors; hit rate 3.5% among 310,000; AID 1490; active = well fitted inhibition curve with a large enough effect; inconclusive = small, poorly fitted or top-dose-only effect, or another doubt; inactive = no such curve, though single readings can be large or run the other way;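 also: the enzyme is Sfp with the accession as filed and its product quenches rhodamine fluorescence; potency is read from the fitted curve at half-maximal effect; 0% = enzyme reaction without inhibitor and -100% = no enzyme wells; top concentration of the series not given in the record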
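Sfp 15 nM + cpd, 15 min RT; start w/ rhodamine-CoA 5 uM, BHQ-2-YbbR 12.5 uM (final); 50 mM Hepes pH 7.6, 10 mM MgCl2, 0.01% NP-40, 0.01% BSA; read 525/598 nm at 0 and 30 min.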
TRPML1 inh – blocks the human TRPML1 channel. TRPML1-inducible cells, Ca2+ dye fluorescence, FDSS; active compounds read low; inhibition of EC80 agonist-evoked calcium signal. Q9GZU1. hit rate 0.02% among 390,000. activity change, negative = inhibition, % (no concentration beside the values); in the data active means activity change below about -50%; inconclusive means about -30% to -50%; inactive means above about -30%;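 also: stimulus is agonist 54-4 at its EC80 concentration; % is scaled to controls: 0 for no effect and ±100 for the full control effect; compound concentration not given in the record; the text of the record puts the active cut at -80%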
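TRPML1-DL cells, Tet-induced overnight (~16 h, 37 °C) at 1,500 cells/well, were loaded with Ca8 no-wash dye plus quencher for 45-90 min at room temperature. Compounds were pinned during FDSS kinetic reading; agonist 54-4 at EC80 (4 uM final) then added.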
ClpP mod – qHTS Assay for Activators of ClpP. purified B. subtilis ClpP, FRET peptide cleavage, 20 min. hit rate 1.9% among 340,000. AID 651965, 2013. ATP-dependent Clp protease proteolytic subunit (Bacillus subtilis (strain 168)), P80244. Potency, µM (titrated, usually from 57.5 µM), for inactives: at the top dose activity change, negative = active; active = well fitted falling curve with a large enough effect; inconclusive = small, poorly fitted or top-dose-only effect; inactive = no such curve, though single readings can be large or run the other way; also: potency is read from the fitted curve at half-maximal effect; the source files actives as falling curves though it sought activators and does not explain the sign; nearly all actives have a fitted effect of over 65% in size; many hits overshoot -100%
Target sequence (P80244 whole entry, looked up): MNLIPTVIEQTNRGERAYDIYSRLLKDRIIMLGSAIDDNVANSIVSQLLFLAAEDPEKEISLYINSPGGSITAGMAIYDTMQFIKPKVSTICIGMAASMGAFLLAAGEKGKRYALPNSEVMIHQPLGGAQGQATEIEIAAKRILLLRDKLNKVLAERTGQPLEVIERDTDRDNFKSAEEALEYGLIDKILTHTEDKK
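Buffer: 100 mM Tris/HCl pH8, 100 mM KCl, 0.05% low protease BSA, 2.5% glycerol, 0.01% Tween-20. ClpP 10 microg/mL final; 20 min RT; delta FRET normalized to ADEP and DMSO controls.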
Menin-MLL FL inh – inhibitors of human menin-MLL interaction, wild-type MLL peptide. Fluorescence polarization, fluorescein-MLL peptide displacement from menin. FP activity change, % at 61.4 µM. 290,000 tested, under 10 active; inconclusive = falling polarisation curve, or a change in total fluorescence; inactive = total fluorescence flat and polarisation flat or rising; no compound was filed as active; the % refers to the polarisation; negative = inhibition;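 also: % of control where 0% means no effect; inhibitors lower the polarisation; unlabelled MLL peptide was the positive control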
TRPV1 potentiator – potentiators of human vanilloid receptor 1 (TRPV1). Q8NER1. hit rate 0.02% among 320,000. potentiation, % at 8.33 µM. TRPV1-expressing cells, Fluo-8 calcium influx, capsaicin EC20 potentiation; host cell line not named in the record; control for the full effect not named in the record; active means potentiation above 80%; inconclusive means 30% to 80%; inactive means below 30%; also: 0% is about no effect
Target sequence (Q8NER1 whole entry, looked up): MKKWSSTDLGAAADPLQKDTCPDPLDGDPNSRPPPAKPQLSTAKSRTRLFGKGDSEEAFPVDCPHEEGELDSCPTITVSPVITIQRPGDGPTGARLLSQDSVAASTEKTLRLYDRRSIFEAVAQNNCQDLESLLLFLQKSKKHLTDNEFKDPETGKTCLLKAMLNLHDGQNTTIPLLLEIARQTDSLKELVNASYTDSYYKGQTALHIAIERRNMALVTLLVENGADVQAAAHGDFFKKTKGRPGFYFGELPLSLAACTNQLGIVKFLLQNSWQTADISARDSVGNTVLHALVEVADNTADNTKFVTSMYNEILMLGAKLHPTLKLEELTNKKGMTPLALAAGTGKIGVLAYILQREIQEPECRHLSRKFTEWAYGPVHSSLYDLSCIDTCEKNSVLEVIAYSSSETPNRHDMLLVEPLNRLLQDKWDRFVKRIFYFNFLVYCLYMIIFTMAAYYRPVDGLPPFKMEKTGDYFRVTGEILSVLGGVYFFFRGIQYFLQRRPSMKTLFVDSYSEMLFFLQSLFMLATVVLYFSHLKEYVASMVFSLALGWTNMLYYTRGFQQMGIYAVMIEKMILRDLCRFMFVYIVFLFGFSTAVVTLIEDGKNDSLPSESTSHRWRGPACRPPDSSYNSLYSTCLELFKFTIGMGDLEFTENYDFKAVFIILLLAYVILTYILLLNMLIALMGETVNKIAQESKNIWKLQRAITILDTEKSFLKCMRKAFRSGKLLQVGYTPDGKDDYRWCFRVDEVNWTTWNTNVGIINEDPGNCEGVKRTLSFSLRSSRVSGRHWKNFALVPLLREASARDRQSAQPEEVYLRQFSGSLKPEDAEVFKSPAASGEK
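Cells expressing TRPV1 were dye-loaded with Fluo-8 and read kinetically: 10 s baseline, 3 min after compound (agonist portion), then 2 min after EC20 capsaicin (allosteric enhancer portion). Calcium-bound dye fluorescence at 480/520 nm.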
Numbers without * were called inactive; ? = inconclusive; . = not tested or not shown; & = joins results of further samples; [ ] = another dose, or the depositor's remark.

SMILES | gsp antagonist | gsp ag | Sfp inh | TRPML1 inh | ClpP mod | Menin-MLL FL inh | TRPV1 potentiator
CCN1C(=O)CC(C(=O)Nc2ccc(F)cc2)SC1=Nc1cccc(OC)c1 (configuration not stated) | -23% | -45%[inhibitor] | 5% | 20 | -3.5% | 1.7 | -8
Fc1ccc(N2C(=S)SC(=Nc3ccccc3)C2=Nc2ccccc2)cc1 | 6% | -7% | . | -21 | -3.9% | . | .
CCOC(=O)C1CCN(C(=O)C2CCCCC2)CC1 | 4% | -33%[inhibitor] | 8% | -13 | 0.0% | 2.4 | 8
Cc1ccc(-n2[nH]c(C)c(C=NCc3ccncc3)c2=O)cc1 | 0% | -9% | 10% | -4 | . | 2.2 | 12
CC(C)CCNC(=O)C(=O)NCc1ccccc1 | 20% | 0% | -3% | 14 | 2.5% | 0.1 | 10
O=C(Nc1cccc(C(F)(F)F)c1)c1cccnn1 | 1% | 24% | 6% | -8 | . | 3.9 | -1
Cc1nc(CCNC(=O)CC2C(=O)NCCN2Cc2ccccc2)nc2c1CCC2 (configuration not stated) | 11% | -27% | -4% | 4 | -15% | . | 8
Cc1ccc(/C=C2/SC(=S)N(CCCC(=O)Nc3ccc(O)cc3)C2=O)cc1 | -11% | -13% | -9% | 8 | . | 9.5 | 12
N#C/C(C(=O)Oc1ccccc1)=C1/Nc2ccccc2-c2ccccc21 | ? | -2%[15.4 µM] | -7% | -2 | -1.9% | 0.3 | 15
CCOc1ccccc1NC(=O)C(Sc1ccccc1)c1ccccc1 (configuration not stated) | -15% | -8% | 8% | 6 | -0.4% | 1.3 | -1

The last 2 records of the part before lead into the next.
SMILES | gsp antagonist | gsp ag | Sfp inh | TRPML1 inh | ClpP mod | Menin-MLL FL inh | TRPV1 potentiator
N#C/C(C(=O)Oc1ccccc1)=C1/Nc2ccccc2-c2ccccc21 | ? | -2%[15.4 µM] | -7% | -2 | -1.9% | 0.3 | 15
CCOc1ccccc1NC(=O)C(Sc1ccccc1)c1ccccc1 (configuration not stated) | -15% | -8% | 8% | 6 | -0.4% | 1.3 | -1
Cc1cccc(-c2cccc(NC(=O)C3CCCN(C(=O)c4ocnc4C)C3)c2)c1 (configuration not stated) | ? | ? | 2% | 25 | 1.4% | 0.2 | 3
COc1ccc(NC(=O)N(Cc2cc3ccc(OC)cc3[nH]c2=O)CC2CCCO2)cc1 (configuration not stated) | -5% | -27% | 12% | 9 | . | 3.3 | 8
CCC(=O)c1ccccc1OCCSc1nc(C)cc(=O)[nH]1 | ? | 10% | 19% | -14 | -3.2% | 0.0 | -14
Cc1cc(C)cc(OC(=O)N2CCOCC2)c1 | 0% | 10% | 3% | 17 | ? | 4.2 | -5
Cc1ccc(C(=O)N2CCCC(N3CCN(c4ccccc4F)CC3)C2)s1 (configuration not stated) | -6% | 0%[15.4 µM] | 13% | 0 | 2.2% | . | -27
O=C(NC(=S)NNS(=O)(=O)c1ccccc1)c1ccc([N+](=O)[O-])cc1 | -5% | -4% | 10% | -19 | -0.6% | 1.9 | -3
CCc1ccc(NC(=O)CC2C(=O)N(c3ccc(C)cc3)C(=O)N2CCc2ccncc2)cc1 (configuration not stated) | ? | -19% | -16% | -2&-4 | -0.9% | -0.1 | -34
Cc1ccccc1-n1c(C)nnc1SCC(=O)N(C)C1CCS(=O)(=O)C1 (configuration not stated) | 15% | 12% | 2% | -23 | 2.7% | 0.5 | -11
O=C(CCc1ccc(O)cc1)c1c(O)cc(O)cc1O[C@@H]1O[C@H](CO)[C@@H](O)[C@H](O)[C@H]1O | 4% | . | 10%&-15% | 3 | 1.5% | -1.9&8.7 | -2
CN(C)/C=C(\C#N)C(=O)N/N=C/c1ccccc1 | -2% | 13% | 24% | 4 | . | -0.5 | -2
CCOC(=O)c1cnn(-c2ccccc2)c1-c1ccncc1 | 0% | ? | -5% | -4 | -1.1% | -0.3 | -1
O=C(Nc1ccc(S(=O)(=O)Nc2ncccn2)cc1)c1ccc2ncsc2c1 | 3% | 8% | ? | -7 | -4.7% | ? | 4
O=C(Nc1ccc(N2CCN(C(=O)c3ccc(Cl)cc3)CC2)cc1)c1ccc2c(c1)OCCO2 | ? | -12% | 4% | 4 | -1.2% | 1.6 | 9
Cc1ccc2cc(CNC(C)(C)C)c(=O)[nH]c2c1 | 9% | -22% | 5% | -14 | ? | 2.4 | -9
COCCn1c(SCC(=O)Nc2cccnc2Cl)nc2cc(Cl)ccc2c1=O | -11% | -2% | . | 5 | -2.5% | . | -33
O=C(Cc1ccccc1)Nc1ncccn1 | 8% | 30% | . | 3 | 0.1% | . | 1
COC(=O)/C=c1/s/c(=C(/C#N)C(=O)N2CCCCC2)n(-c2ccccc2)c1=O | -3% | -15% | -8% | -5 | 1.0% | 1.9 | 3
Cc1ccc(OCC(=O)NNC(=S)NC(=O)c2cccs2)c(C)c1 | -5% | 7% | 16% | -7 | 0.5% | -0.4 | 11
CCC(=O)N1CCN(c2ccc(NC(=O)c3cccs3)cc2)CC1 | -26% | 7% | 23% | -9 | -2.6% | -2.5 | 1
CCN1C(=O)Cc2cc(S(=O)(=O)N3CCOCC3)ccc21 | 0% | -24% | 1% | 7 | -1.2% | 0.9 | -4
COc1ccc(N2CCN(c3nc4ccccc4n3CC(=O)c3ccccc3)CC2)cc1 | -15% | 0% | ? | -5 | -1.9% | 0.0 | 7
CCC1Oc2ccc(C)cc2N(CC(=O)NCCN2CCCCCC2)C1=O (configuration not stated) | 3% | -21% | -1% | 62 | -1.2% | 0.8 | 2
O=C(/C=C/c1ccco1)N1CCN(S(=O)(=O)c2ccccc2)CC1 | 8% | 4% | . | 16 | -0.7% | . | .
Cn1c2c(c(=O)n(C)c1=O)C(c1ccc(Br)cc1)C(C#N)=C(N)N2 (configuration not stated) | -2% | -40%[inhibitor] | 19% | . | 0.7% | 1.5 | -9
CC(=O)Nc1ccc(NC(=O)CSc2nnc(NC(=O)C3CC(=O)N(c4ccccc4)C3)s2)cc1 (configuration not stated) | -2% | 22% | 8% | 6 | 1.7% | . | 0
O=C(CCN1C(=O)C2C3C=CC(C3)C2C1=O)Nc1nccs1 (configuration not stated) | 11% | 3% | 26% | -3 | 2.0% | 5.2 | 20
Cc1ccc(-c2nn3c(C)nnc3c3ccccc23)cc1S(=O)(=O)NCCN1CCOCC1 | 20% | ? | 7% | 5 | -13% | 2.8 | -4
Cc1ccc(S(=O)(=O)N2CCN(c3ccc([N+](=O)[O-])c(NCCN4CCOCC4)c3)CC2)cc1 | 1% | -17% | -4% | -6 | 1.5% | 2.5 | -7
COc1cccc(Nc2ncnc3c2cnn3-c2cccc(C)c2)c1 | -4% | 32% | 6% | 10 | ? | 5.3 | -24
CC(C)NC(=O)N(C)C[C@H]1Oc2c(NS(=O)(=O)c3ccccc3)cccc2C(=O)N([C@H](C)CO)C[C@@H]1C | 2% | -11% | . | -7 | -1.8% | . | .
Cc1cccc(N(CC(=O)NCc2ccc(F)cc2)C(=O)c2ccco2)c1 | 3% | -3% | -4% | 14 | . | 0.2 | 4
Clc1ccc(Oc2ncnc3oc(-c4ccccc4)cc23)cc1 | -4%[15.4 µM] | 14% | 6% | 47 | -18% | -1.9 | 14
COc1ccc(NC(=O)CSc2nc(=O)n(CCN(C)C)c3c2CCCC3)cc1 | 7% | 19%[15.4 µM] | . | -9 | -2.0% | . | 4
CCCCCCCC(=O)OC(CN1CCCCC1)CN1CCCC1=O (configuration not stated) | 2% | 11% | 8% | -1 | -1.7% | -1.8 | -11
CC(=O)c1cccc(NC(=O)N(c2ccccc2)c2ccccc2)c1 | -10% | 9%[15.4 µM] | 5% | 18 | -1.1% | -1.4 | 4
CN(C)CCNC(=O)NC(=O)c1ccc(Cl)cc1 | 12% | -9%[15.4 µM] | 12% | 1 | 0.3% | -2.0 | 1
CCN(c1cccc(C)c1)S(=O)(=O)c1c(C)[nH]c(=O)[nH]c1=O | 2% | 2% | 14% | 7 | -1.7% | 3.9 | 0
O=c1c2cc(Cl)ccc2nc(-c2ccc([N+](=O)[O-])cc2)n1O | -16% | 19%[15.4 µM] | -6% | -13 | . | -0.9 | 5
CC12CCC(=O)N1C(C(=O)Nc1nc3c(F)cc(F)cc3s1)CS2 (configuration not stated) | -21% | 5% | -3% | 5 | 1.4% | . | -3
C/C(=N\N(C)C)c1ccc(OCCOc2ccc([N+](=O)[O-])cc2)cc1 | -9% | 3% | -2% | 32 | . | -0.8 | 10
CC1(Cc2ccc3c(c2)OCO3)NC(=O)NC1=O (configuration not stated) | 13% | 10% | 5% | 10 | 0.6% | 4.7 | ?
O=C(COC(=O)C1CC2CCCC(C1)C2=O)NNC(=O)c1ccccc1Br (configuration not stated) | 11% | 7% | . | 19 | -3.8% | . | -21
O=C(CCC(=O)NC1CC1)Nc1nnc(C2CCCCC2)s1 | -1% | -8% | 8% | 6 | -1.2% | -0.4 | -8
N#CCCN(C(=O)COc1ccc(F)cc1Br)c1ccccc1F | -6% | 3% | 23% | 7 | . | -0.4 | 3
Cc1nnc(N/N=C/c2c(Cl)cccc2Cl)n1N | ? | -8%[15.4 µM] | ? | 1 | . | 6.7 | 6
Cc1ccc(S(=O)(=O)Cn2nnnc2C(C(C)C)N2CCC(O)CC2)cc1 (configuration not stated) | -1% | -34% | 5% | -3 | . | . | 1
CCOc1ccc(OCCSc2nc3ccccc3c(=O)[nH]2)cc1 | 14% | -2% | 5% | 31 | -9.9% | 0.7 | 12
O=C(Nc1cccnc1)c1ccc(Cl)c(S(=O)(=O)N2CCc3ccccc32)c1 | -11% | 1%[15.4 µM] | 3% | 24 | . | 1.0 | -1
Cc1noc(C)c1COc1ccc(C(=O)OCC(=O)Nc2ccc3ccccc3c2)cc1 | -13% | 0% | 8% | 3 | -6.7% | 1.5 | 9
CC(C)COc1ccc(/C=C2/Sc3ccccc3C2=O)cc1 | 5% | ? | -21% | -1 | 0.3% | ? | 8
O=C(O)c1cccc(S(=O)(=O)Nc2ccc(OCc3ccccc3)cc2)c1 | 4% | -3% | -6% | 17 | . | 0.3 | -14
